Screening data as filed in PubChem.
UCH37 DUB inh: inhibitors of human deubiquitinating enzyme UCH37 | Q9Y5K5 | 330,000 compounds, 0.33% hits | AID 588478 | purified proteasome/UCH37, Ub-AMC cleavage fluorescence | inhibition, % (test concentration not listed);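 active means mean of two replicates above 20%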;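 further: 0% = compound-free wells with enzyme and 100% = wells lacking proteasome; stock transfer was 100 nL into about 20 µL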
Target sequence (Q9Y5K5 whole entry, looked up): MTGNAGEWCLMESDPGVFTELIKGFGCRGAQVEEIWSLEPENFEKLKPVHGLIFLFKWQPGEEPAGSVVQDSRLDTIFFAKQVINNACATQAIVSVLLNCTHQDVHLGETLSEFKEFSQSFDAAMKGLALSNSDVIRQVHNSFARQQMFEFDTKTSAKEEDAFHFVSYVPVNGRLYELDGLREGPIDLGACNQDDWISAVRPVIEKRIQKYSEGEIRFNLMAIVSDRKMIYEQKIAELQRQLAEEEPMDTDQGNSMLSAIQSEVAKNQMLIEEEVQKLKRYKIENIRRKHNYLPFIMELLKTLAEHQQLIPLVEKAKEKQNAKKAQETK
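System: Proteasome-associated human UCH37 deubiquitinase; Input: 0.15 nM proteasome in added enzyme buffer; Also added: Ub-AMC substrate from 1 µM stock; Incubation: 30 min compound-proteasome preincubation then 25 min substrate reaction, room temperature; Detection: fluorescence, ex 355 nm, em 460 nm; Read-out: % inhibition of Ub-AMC cleavage fluorescence; Benchmarks: no-proteasome and no-compound wells.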
Ecoli growth: blocks Escherichia coli growth; OD600, 23 h; stronger effect = lower value; OD600 absorbance (no concentration beside the values); 330,000 compounds, 0.21% hits;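 active means OD600 absorbance below the run mean of sample wells minus 3.6 SD, in any replicate, cut at about 0.56 in these data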;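 further: stock transfer was 300 nL into about 60 µL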
Numbers without * were called inactive.

Preview (2 entries):
Fields: UCH37 DUB inh	Ecoli growth
COc1cc(C=c2sc3nc(-c4ccccc4)c(-c4ccccc4)n3c2=O)cc(OC)c1OC
  6.4	0.74
O=C(NN=Cc1ccccc1Cl)c1n[nH]c2c1CCCC2
  4.8	0.7

This part in full, repeating the preview:
Fields: UCH37 DUB inh	Ecoli growth
COc1cc(C=c2sc3nc(-c4ccccc4)c(-c4ccccc4)n3c2=O)cc(OC)c1OC
  6.4	0.74
O=C(NN=Cc1ccccc1Cl)c1n[nH]c2c1CCCC2
  4.8	0.7
CCOc1cc(C=NNC(=O)c2cccnc2)ccc1OCC(=O)N1CCOCC1
  7.0	0.65
Cc1nnc(C)n1N=Cc1cccs1
  2.0	0.7
CC(=NNC(=O)CSc1nc(C)cc(C)n1)c1ccc2c(c1)OCCO2
  6.1	0.69
COc1cc(C=NNS(=O)(=O)c2ccc(Br)cc2)ccc1O
  1.7	0.67
COc1cc(C=NNC(=O)CSc2nc3ccccc3n2C)cc(OC)c1OC
  8.1	0.66
CN(C(=NS(=O)(=O)c1ccccc1)c1ccccc1)S(=O)(=O)c1ccccc1
  1.8	0.72
Cc1ccccc1C=NNC(=O)Cn1cnc([N+](=O)[O-])n1
  1.4	0.68
C/C(C=NNc1nc(N2CCCCC2)nc(N2CCCCC2)n1)=C\c1ccccc1
  4.9	0.68
O=C(NN=C/C(Br)=C\c1ccccc1)c1cccs1
  1.6	0.6
O=C(NN=CC1C(c2ccccc2)C1(Cl)Cl)c1cccc(Cl)c1 (stereo unspecified)
  0.3	0.68
S=c1[nH]nc(-c2ccco2)n1N=C/C=C/c1ccccc1
  6.7	0.66
COc1cc(CC(=O)NN=Cc2ccc([N+](=O)[O-])cc2)c([N+](=O)[O-])cc1OC
  10	0.65
COC(=O)NN=Cc1cc(Br)ccc1OCc1ccccc1
  3.0	0.69
O=C(CC1SC(=NS(=O)(=O)c2ccc(F)cc2)N(c2ccccc2)C1=O)Nc1ccccc1 (stereo unspecified)
  2.4	0.7
Cn1c(=O)[nH]c(=O)c2c1nc(NN=Cc1ccncc1)n2Cc1ccc(F)cc1
  -1.1	0.7
CC(=NNC(=O)C1CC1(c1ccccc1)c1ccccc1)c1cccc([N+](=O)[O-])c1 (stereo unspecified)
  1.3	0.69
O=C(NN=Cc1cccnc1)c1ccc2c(c1)OCO2
  0.3	0.66
COc1ccc(C=NNc2nonc2N)cc1
  5.6	0.67
O=C(/C=C/c1ccc([N+](=O)[O-])cc1)Oc1ccc(C=NNC(=O)c2ccncc2)cc1
  4.4	0.73
COc1ccccc1N(CC(=O)NN=Cc1ccccc1C(=O)O)S(C)(=O)=O
  5.6	0.68
O=C(NN=Cc1ccccc1)c1cccc(C(=O)NN=Cc2ccccc2)n1
  -2.6	0.65
O=C(COCC(=O)NN=Cc1ccccc1F)NN=Cc1ccccc1F
  2.1	0.7
COc1cccc(C=NNc2nncc(-c3ccccc3)n2)c1
  2.1	0.74
Cc1[nH]c2ccccc2c1C=NNC(=O)c1ccccc1
  9.7	0.66
Clc1nnc(NN=Cc2ccccc2)c2ccccc12
  3.2	0.67
COc1cc(C(C)=NNC(=O)c2nnn(-c3nonc3N)c2-c2cccs2)ccc1O
  -46	0.73
CCN(CC)S(=O)(=O)c1cccc(C(=O)NN=Cc2cccc(O)c2O)c1
  1.8	0.67
O=C(NN=C/C=C/c1ccccc1)c1cc(C2CC2)[nH]n1
  7.5	0.59
Cc1ccc(-c2n[nH]c(=S)n2N=Cc2c(C)[nH]n(-c3ccccc3)c2=O)cc1
  6.9	0.64
C[C@@H]1C2CC(CC2=NNC(=O)c2ccncc2)C1(C)C (stereo partly specified)
  1.8	0.72
COc1cc(C)c2occ(C(C)=NO)c2c1
  -0.7	0.66
CCCOc1ccc(C(=O)NN=Cc2c[nH]c3ccc(Br)cc23)cc1
  -4.2	0.63
COc1ccc(C=NNc2nc(-c3cccnc3)nc3ccccc23)cc1OC
  -52	0.61
CN(c1ccccc1)c1ccc(C=NN2CCOCC2)cc1
  6.8	0.69
O=C(CC(=O)NN=Cc1ccc(O)cc1)NN=Cc1ccc(O)cc1
  5.7	0.69
CC1(C)CC(=O)C(C=Nc2cccnc2N=CC2=C(O)CC(C)(C)CC2=O)=C(O)C1
  2.3	0.64
Cc1cc2ncn(N=Cc3ccc4c(c3)OCO4)c2cc1C
  -37	0.67
COC(=O)c1ccc(C=NN2CCN(Cc3ccc(Cl)cc3)CC2)cc1
  2.9	0.61

Reformatted: results already given.
SMILES	UCH37 DUB inh	Ecoli growth
Cc1ccc(-c2n[nH]c(=S)n2N=Cc2c(C)[nH]n(-c3ccccc3)c2=O)cc1	6.9	0.64
Cc1[nH]c2ccccc2c1C=NNC(=O)c1ccccc1	9.7	0.66
COc1ccc(C=NNc2nc(-c3cccnc3)nc3ccccc23)cc1OC	-52	0.61

Random excerpt: two compounds from above
Fields: UCH37 DUB inh	Ecoli growth
Cc1[nH]c2ccccc2c1C=NNC(=O)c1ccccc1
  9.7	0.66
COc1cccc(C=NNc2nncc(-c3ccccc3)n2)c1
  2.1	0.74

Other records follow:
Fields: UCH37 DUB inh	Ecoli growth
Clc1cc(C=NNC2=NCCN2)cc(Cl)n1
  11	0.63
CC(Cc1ccccc1)=NNC(=O)CNC(=O)COc1cccc(C)c1
  2.6	0.58
Cc1ccc(-c2n[nH]c(=S)n2N=Cc2sccc2C)cc1
  6.4	0.67
CC(=NNC(=O)c1cccc(S(=O)(=O)N2CCCCC2)c1)c1ccc(C)o1
  3.6	0.66
CC(CC(C)C)=NOc1nc(C)cc(C)n1
  0.9	0.67
O=C(CC(=O)NN=Cc1ccc([N+](=O)[O-])cc1)NCCc1ccccc1
  7.6	0.73
Cc1cc(C=NO)c(C)n1-c1ccc(Br)cc1
  7.1	0.71
Cc1nc(C)c(-c2ccnc(N=CNO)n2)s1
  4.4	0.61
Cc1[nH]c2ccccc2c1C=NNC(=O)c1cc(C(C)C)[nH]n1
  9.0	0.63
COC(=O)N=C(Cc1ccc(OC)cc1)c1ccc(OC)cc1
  5.0	0.69
O=C(Cc1cccs1)NN=Cc1ccc(O)cc1
  1.4	0.71
COc1ccc(C=NNC(=O)CCCOc2ccc(Cl)cc2Cl)cc1
  -0.6	0.72
COc1cc(C=NNC(=O)c2csc3c2CCCC3)ccc1OCCN1CCOCC1
  5.8	0.7
Cc1cc(NN=Cc2ccccc2)nc(NCc2ccccc2)n1
  0.8	0.64
C=CCn1cnc2c(c1=O)c1nc3ccccc3nc1n2N=Cc1cc(OC)c(OC)c(OC)c1
  10.0	0.69
CC(CC(=O)Nc1ccc([N+](=O)[O-])cc1)=NNC(=O)C1CC12CCC2 (stereo unspecified)
  3.3	0.67
CC(=NOCc1cccc(C(=O)O)c1)c1ccc(Cl)cc1
  5.4	0.66
CC(CC(=O)Nc1ccc(Cl)c(Cl)c1)=NNC(N)=S
  4.9	0.71
NC(=S)NN=Cc1coc2c(ccc3ccccc32)c1=O
  0.4	0.68
COc1cc(C=NNC(=O)c2ccncc2)ccc1OC(=O)c1cc(OC)c(OC)c(OC)c1
  2.0	0.7
CCCCCCCC(=O)NN=C(C)c1cccnc1
  3.5	0.71
CC(=NNC(=O)c1c(Br)c(C)nn1C)c1cccc(NC(=O)c2ccccc2F)c1
  3.5	0.69
COc1ccc(C=NNc2nc(C)cc(-c3ccccc3)n2)cc1OC
  -0.5	0.71
CC1(C)Oc2ccc3ccc(=O)oc3c2C(C=NO)=C1Cl
  0.0	0.68
COc1ccc2c(c1)CCC2=NNC(=O)c1ccccc1
  5.0	0.66
COC(=O)NN=Cc1c(C)[nH]n(-c2ccccc2)c1=O
  8.1	0.63
CC(=NNC(=O)c1cc(C(C)C)[nH]n1)c1ccco1
  3.7	0.62
O=C(CC1S/C(=N/N=Cc2cccnc2)NC1=O)Nc1ccccc1 (stereo unspecified)
  8.5	0.69
O=C(CN1CC(c2ccccc2)CC1=O)NN=Cc1cc(Br)ccc1O (stereo unspecified)
  -28	0.67
N#Cc1c(N=Cc2cccs2)sc2c1CCCCC2
  6.7	0.68
CN1CCN(C=Nc2c(C#N)cnn2-c2ccccc2)CC1
  3.6	0.67
COc1ccc(S(=O)(=O)ON=C2CCCc3ccccc32)cc1
  6.8	0.75
Cc1cc(Cl)ccc1OCCCC(=O)NN=Cc1cccc([N+](=O)[O-])c1
  -0.4	0.72
Cc1ccccc1Cn1cc(C=Nn2cnnc2)c2ccccc21
  3.4	0.69
Cc1nc2ccccc2c2c1C(=O)N(CCC1=CCCCC1)C2=O
  -4.7	0.65
CCOC(=O)C=c1sc(=C(C#N)C(N)=O)n(-c2ccccc2)c1=O
  4.6	0.61
CC(/C=C/c1ccccc1)=NNC(=O)CCc1ccccc1
  7.0	0.68
Cc1ccc(C=NNc2ccc(C(=O)O)cc2)o1
  15	0.71
COc1ccc2cc(C(N)=O)c(=NNC(=O)c3ccco3)oc2c1
  11	0.67
O=C(O)CCC(=NNC(=O)CNC(=O)c1ccc(F)cc1)c1ccccc1
  4.9	0.7
COc1cc(C=NNC(=O)c2ccc3c(c2)OCCO3)c(Br)c(Br)c1O
  8.5	0.73
Cc1cccc(CC2S/C(=N/N=Cc3ccco3)NC2=O)c1 (stereo unspecified)
  5.3	0.69
Nc1nc2ccccc2n1N=Cc1cccnc1
  3.4	0.7
Cc1ccc(C=NNC(=O)c2csnn2)cc1
  1.8	0.71
ON=C1CCCCc2sccc21
  3.2	0.67
Cc1cc(-c2n[nH]c(=S)n2N=Cc2ccc(C)s2)n[nH]1
  1.0	0.69
COc1cccc(OCc2cc(C=Nn3cncn3)ccc2OC)c1
  0.2	0.69
COc1cc(C=Nn2cnnc2)ccc1OCCSc1ccc(C)cc1
  -3.4	0.71
O=C(NN=Cc1ccccn1)c1ccc([N+](=O)[O-])cc1
  3.3	0.73
O=c1c(=Cc2ccc(CNS(=O)(=O)c3ccccc3)o2)sc2n1CCN=2
  12	0.71
CN=C1SC(CC(=O)Nc2ccc(F)cc2F)C(=O)N1N=C(C)c1cccc(OCC(=O)O)c1 (stereo unspecified)
  1.1	0.68
Cc1ccc(C=NNC(=O)c2cccc([N+](=O)[O-])c2)o1
  9.7	0.67
COc1ccc(C=NNC(=O)CCn2nnc3ccccc32)cc1
  3.8	0.62
Cn1cccc1-c1cc(C(=O)NN=Cc2ccccc2Cl)[nH]n1
  -5.6	0.67
O=C(NN=Cc1c[nH]c2ccccc12)c1cc(-c2ccccc2)n[nH]1
  -8.5	0.71
COc1sc(SC)cc1C=NNC(=O)c1ccncc1
  5.9	0.69
Cc1ccc(S(=O)(=O)N(C)N=C2C(=O)N(CC(=O)O)c3ccccc32)cc1
  3.9	0.69
COc1cc(C=NNC(=O)CN2CCOCC2)ccc1OCc1ccccc1
  -0.1	0.67
COc1ccc(C=NNC(N)=S)cc1OC(=O)c1cccc2ccccc12
  3.2	0.68
COc1c(C=NNc2ccc(C(=O)O)cc2)c(CCN(C)C(C)=O)cc2c1OCO2
  4.3	0.66

More results follow.
Fields: UCH37 DUB inh	Ecoli growth
S=c1[nH]nc(Cc2ccc(Br)cc2)n1N=Cc1ccc(Cl)cc1
  3.0	0.65
COCCCNC(=O)c1c(N)n(N=Cc2cccnc2)c2nc3ccccc3nc12
  -49	0.69
CC(C)C=NNC(=O)CCCCC(=O)NN=CC(C)C
  1.7	0.72
Cn1c(NN=Cc2cc3ccccc3nc2Cl)nc2ccccc21
  5.3	0.72
COc1cc(C=NNC(=O)c2ccc3c(c2)OCO3)ccc1O
  9.3	0.73
O=C(Cn1nc2ccccc2n1)NN=Cc1cc([N+](=O)[O-])ccc1O
  16	0.63
OCCSc1nncn1N=Cc1c[nH]c2ccccc12
  3.2	0.67
CC(=Nn1cnnc1)c1ccc(C#N)cc1
  0.5	0.63
Cc1ccc(C=NNC(=O)c2sccc2OCc2ccc(F)cc2)cc1
  -2.0	0.77
Cn1c(NN=Cc2cccs2)nc2c1c(=O)n(Cc1ccccc1)c(=O)n2C
  -51	0.69
NC(=S)NN=Cc1cc([N+](=O)[O-])ccc1Cl
  4.4	0.71
COc1ccc(C2CC2C(C)=NOC(=O)c2ccc(F)cc2)cc1 (stereo unspecified)
  4.5	0.71
O=C(NN=Cc1ccc(-c2ccc(Br)cc2)o1)c1ccc2c(c1)OCO2
  -19	0.73
COC(=O)NN=Cc1cc2c(cc1Br)OCO2
  5.4	0.69
Cc1cccc(OCC(=O)NC(C)C(=O)NN=Cc2c(OCc3ccccc3)ccc3ccccc23)c1 (stereo unspecified)
  -2.9	0.76
CC(=O)Nc1cccc(C(C)=NNS(=O)(=O)c2ccc(C)cc2)c1
  2.8	0.72
Cn1cccc1C(=O)NN=Cc1c(Cl)cccc1Cl
  3.4	0.68
CCOC(=O)Cc1csc(NN=Cc2ccc(Cl)cc2)n1
  -0.5	0.67
C=CCOc1cccc(C=NNC(=O)CN2CCCCC2)c1
  1.2	0.69
COCc1cc(=O)[nH]c(N=C(N)Nc2ccc(Cl)c(Cl)c2)n1
  0.9	0.7
COc1ccccc1C=NNC(=O)c1ccccc1NS(=O)(=O)c1ccc(C)cc1
  -5.4	0.71
COc1ccccc1N1CCN(N=Cc2ccccc2)CC1
  2.8	0.67
COc1ccc(OC)c(C=NNC(=O)CSc2cc(C)nc3c(OC)cccc23)c1
  -297	0.68
S=c1[nH]nc(-c2ccccn2)n1N=Cc1cccs1
  5.1	0.64

Only part of the results is shown; rates above refer to the full screens.
